Bioassay records deposited in PubChem BioAssay by National Center for Advancing Translational Sciences (NCATS).
miR-21 reporter: raises the signal of a miR-21 reporter; HeLa miR-21 FLuc reporter, luciferase, 48 h; Potency, µM (titrated, usually from 38.3 µM), for inactives: top-dose reporter change, positive = more light; 340,000 tested, under 10 active; AID 2288; active = well fitted rising curve with a large enough effect; inconclusive = small, poorly fitted or top-dose-only effect; inactive = no such curve, though single readings can be large or run the other way;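 further: % of control where 0% means no effect; miR-21 action dims this reporter so a rising signal means less miR-21 action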
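HeLa cells endogenously expressing miR-21, stably carrying CMV-driven firefly luciferase with a downstream miR-21 binding site, 2000 cells/well. Titrations up to approximately 40 uM, 48 hours; luciferase luminescence read.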
Active calls of the source: *; ? = inconclusive. The list is partial. The share of hits here may be higher or lower than overall.

smiles	miR-21 reporter
CCn1c(SCc2ccccc2F)nc(=O)c2c(C(=O)OC)cc(C3CC3)nc21	?
O=C(CN1C(=O)COc2ccc(S(=O)(=O)N3CCOCC3)cc21)N1CCN(c2ccccc2F)CC1	0.0%
COc1ccc(-n2ncc(C(=O)NCc3ccc4c(c3)OCO4)c2C2CCN(C(=O)OC(C)(C)C)CC2)cc1	29.1%
CC(C)CC(C(=O)NCCc1ccccc1)N1Cc2ccccc2C1=O (stereo not drawn)	1.2%
O=C(NCCN1CCCCC1)c1ccc(Cn2c(SCc3ccccc3)nc3cccnc32)cc1	47.9%
CCN(CC)CCn1c(-c2ccccc2)csc1=Nc1ccccc1	4.6%
Cc1ccc(C)c(NC(=O)Cn2c(=O)oc3cc(S(=O)(=O)NCc4ccccc4)ccc32)c1	11.2%
CS(=O)(=O)c1ccccc1-c1nnc(NC(=O)c2ccc3c(c2)OCCO3)o1	-2.5%
Cc1ccc2occ(CC(=O)N(Cc3ccc(N(C)C)cc3)C3CCS(=O)(=O)C3)c2c1 (stereo not drawn)	-3.1%
CC1CCc2nc(NC(=O)Cc3ccc(Cl)cc3)sc2C1 (stereo not drawn)	-43.1%
COc1cc(NC(=O)CSc2nc3nc(C)c(Cc4ccccc4)c(C)n3n2)cc(OC)c1OC	1.4%
CCCOc1ccccc1C1C(C(=O)Nc2ccccc2)=C(C)Nc2nnnn21 (stereo not drawn)	7.4%
COc1ccc(NC(=O)Cn2cc(S(=O)(=O)N3CCC(C)CC3)c3ccccc3c2=O)cc1Cl	-7.7%
Cc1ccc(NC(=O)Cn2c(=O)n(Cc3ccco3)c(=O)c3sc4ccccc4c32)c(C)c1	7.6%
COCCNC(=O)CSc1nc2cc3c(cc2c(=O)n1CCCCCC(=O)NCc1ccc(OC)cc1)OCO3	-5.5%
O=S(=O)(NCC(c1ccco1)N1CCN(c2ccc(F)cc2)CC1)c1cc(F)ccc1F (stereo not drawn)	3.6%
O=C(Nc1cc(Cl)cc(Cl)c1)c1ccc(F)c(S(=O)(=O)N2CCc3ccccc32)c1	?
Cn1nnc2c(NCc3ccc(Cl)cc3)ncnc21	-10.4%
CC(=O)N1CCCc2cc(S(=O)(=O)N3CCN(c4ccccc4F)CC3)ccc21	7.5%
COc1ccccc1NC(=O)c1oc2ccccc2c1NC(=O)c1ccccc1C(F)(F)F	7.3%

7 compounds out of the list above, ordered by the number in miR-21 reporter, rising.
Molecule | miR-21 reporter
Cn1nnc2c(NCc3ccc(Cl)cc3)ncnc21 | -10.4%
COc1ccc(NC(=O)Cn2cc(S(=O)(=O)N3CCC(C)CC3)c3ccccc3c2=O)cc1Cl | -7.7%
COCCNC(=O)CSc1nc2cc3c(cc2c(=O)n1CCCCCC(=O)NCc1ccc(OC)cc1)OCO3 | -5.5%
O=S(=O)(NCC(c1ccco1)N1CCN(c2ccc(F)cc2)CC1)c1cc(F)ccc1F (stereo not drawn) | 3.6%
COc1ccccc1NC(=O)c1oc2ccccc2c1NC(=O)c1ccccc1C(F)(F)F | 7.3%
CC(=O)N1CCCc2cc(S(=O)(=O)N3CCN(c4ccccc4F)CC3)ccc21 | 7.5%
Cc1ccc(NC(=O)Cn2c(=O)n(Cc3ccco3)c(=O)c3sc4ccccc4c32)c(C)c1 | 7.6%

(further entries)
smiles	miR-21 reporter
CCc1ccc(NC(=O)CN2C(=O)C(c3ccc(C)cc3)=NC23CCCCC3)cc1	26.7%
Cc1nnc(N2CCN(c3ccccc3F)CC2)c2c1nnn2Cc1ccccc1Cl	5.5%
COc1ccccc1-c1nc2cc(NC(=O)c3ccccc3Cl)ccc2o1	-37.8%
Cc1ccc(NC(=O)N2CC=C(c3c[nH]c4ccccc34)CC2)cc1Cl	-0.9%
COc1cc2c(cc1NC(=O)COc1cc(C)ccc1C)oc1ccccc12	-1.0%
CCOc1ccc(CNC(=O)c2ccc(-c3nc(CSc4ccc(C)cc4)c(C)o3)cc2)cc1	2.0%
COc1ccc(C)cc1NC(=O)CN(c1cc(C(F)(F)F)ccc1Cl)S(C)(=O)=O	5.6%
Cc1cccc(N2CCN(C(=O)C3CCCN(C(=O)c4cc5sccc5n4C)C3)CC2)c1C (stereo not drawn)	?
Cc1nn(C)c2c1c(-c1ccccc1)cc(=O)n2Cc1ccccc1C#N	-6.9%
COc1ccccc1N1CCN(C(=O)c2nn(-c3ccc(C)cc3)c(=O)n(C)c2=O)CC1	-2.5%
Cc1cccc(OCCn2c(-c3ccc(Cl)cc3)nc3ccccc3c2=O)c1	-7.6%
CCn1cc(C(=O)NCCc2ccccc2)c(=O)c2cc(S(=O)(=O)N3CCOCC3)ccc21	-4.3%
COc1ccccc1C(=O)NCC(c1cccnc1)N1CCc2ccccc2C1 (stereo not drawn)	-32.4%
O=C(COc1ccc(F)cc1)NC1CC(=O)N(c2ccc3c(c2)OCCO3)C1 (stereo not drawn)	-5.3%
CC1=C(c2ccc(C)c(C)c2)S(=O)(=O)N=C1N1CCC(C(=O)NCc2ccc(N(C)C)cc2)CC1	-2.4%
COc1ccc(NC(=O)CSCc2cc(=O)c3cc(Cl)ccc3[nH]2)cc1	0.9%
CC1CCN(c2nc3ccc(C(=O)NC(C)C)cc3s2)CC1	-22.2%
CCCCCn1cc2c(c1-c1ccc(Cl)cc1)c(=O)n(C)c(=O)n2C	-0.4%
COc1ccc(C)cc1NC(=O)C(=O)NCCc1csc2nc(-c3ccccc3F)nn12	0.3%
Cc1ccc(-n2ncc3c(NCCCc4ccccc4)ncnc32)cc1	-44.1%
Cc1ccccc1NS(=O)(=O)c1nnc(NC(=O)c2ccco2)s1	-22.1%
Cc1cc(F)ccc1NC(=O)Cn1nc(N2CCN(c3ccccc3)CC2)ccc1=O	2.8%
CCOC(=O)C(CC)n1nnc2sc(-c3ccccc3)cc2c1=O (stereo not drawn)	-15.2%
COc1ccccc1/C=C/c1nc(C#N)c(NC(C)c2ccccc2)o1 (stereo not drawn)	11.9%
CC(Oc1ccc(F)cc1)C(=O)NCC1(N(C)C)CCCCC1 (stereo not drawn)	-3.4%
COc1cc(OC)c(NC(=O)C(C)n2c(=O)cc(-c3ccccc3)c3c(C)nn(C)c32)cc1Cl (stereo not drawn)	8.4%
COC(=O)c1ccc2c(c1)N(CC(=O)Nc1cccc(Cl)c1C)C(=O)c1ccccc1S2	-12.5%
Cc1cccc(N2CCN(c3c4c(nc5nncn35)CCC4)CC2)c1C	-0.1%
Cc1ccc(NC(=O)CCCN2C(=O)COc3ccc(C)cc32)c(Cl)c1	?
Cc1cccc(N2C(=O)C(CC(=O)Nc3ccccc3)N(C3CCCCC3)C2=O)c1 (stereo not drawn)	-0.7%
CCc1ccc(-n2c(=O)c3c4c(sc3n(CC(=O)NCCCOC)c2=O)CCCC4)cc1	-0.5%
CC(=O)Nc1ccc(NC(=O)c2ccc3c(c2)N(Cc2cccc(Cl)c2)C(=O)c2ccccc2S3=O)cc1 (stereo not drawn)	8.0%
COc1ccc(-c2nc(Cn3c(SCc4ccc(C)cc4)nc4cccnc43)c(C)o2)cc1OC	?
Cc1ccc(NC(=O)CN2C(=O)COc3ccc(S(=O)(=O)Nc4ccccc4)cc32)c(C)c1	8.7%
Cc1ccc(Cl)cc1NC(=O)N1CCC(CN2CCc3ccccc3C2)CC1	8.4%
COc1ccc(CCNC(=O)c2ccc3c(c2)N(Cc2ccc(F)cc2)C(=O)c2ccccc2S3(=O)=O)cc1OC	14.9%
CCOC(=O)c1cc2c(=O)n3ccccc3nc2n(CCCOC)c1=NC(=O)c1cc2ccccc2o1	-3.7%
Cc1nc2ncnn2c(C)c1CCC(=O)NCc1ccccc1Cl	2.4%
CCOC(=O)c1c(NC(=O)COc2ccccc2)sc(C(C)=O)c1C	-1.2%
Cc1ccc2cccc(NC(=O)c3ccc(-c4cccc(Cl)c4Cl)o3)c2n1	-0.8%

The results go on.
SMILES	miR-21 reporter
CCn1cc(C(=O)OCC(=O)Nc2cc(OC)cc(OC)c2)c(=O)c2ccc(C)nc21	2.6%
CCc1nnc(SCc2ccc(F)cc2Cl)c2cc3sc(C)cc3n12	-1.7%
Cc1ccc(C)c(Cn2c(=O)n(CCCCCC(=O)NCc3ccc4c(c3)OCO4)c(=O)c3sccc32)c1	-9.6%
O=C(c1ccccc1Cl)N1CCCCC1CCN1CCOCC1 (stereo not drawn)	5.2%
CCOc1ccc(NC(=O)c2c(NCc3cccnc3)sc3c2CCC(C)C3)cc1 (stereo not drawn)	1.4%
Cc1ccc(-c2nc(CS(=O)CC(=O)NCCc3ccc(Cl)cc3)c(C)o2)cc1 (stereo not drawn)	14.1%
Cc1cc(C)c(NC(=O)C(C)n2c(=O)cc(C)c3c(C)nn(-c4ccccc4)c32)c(C)c1 (stereo not drawn)	0.9%
COc1ccc(Br)cc1CNC(=O)c1cc2c(=O)n(C)c3ccccc3c2s1	-1.3%
COc1ccccc1C(=O)N1CCCCC1CCN1CCOCC1 (stereo not drawn)	7.5%
CCN(C(=O)CSc1nc2ccccc2n1CC(=O)NCc1ccc(OC)cc1)c1ccccc1	-6.5%
COC(=O)c1cc2oc3ccccc3c2n1CC(=O)Nc1ccc(C)c(F)c1	2.3%
Cc1nn2c(=O)cc(COC(=O)c3ccc(NC(=O)c4cccs4)cc3)nc2s1	1.1%
Cc1ccc2sc(N(Cc3cccnc3)C(=O)C3COc4ccccc4O3)nc2c1C (stereo not drawn)	-0.3%
COc1cc2ccccc2cc1C(=O)Nc1ccc2oc(-c3ccc(F)cc3Cl)nc2c1	-21.8%
Cc1cccc(CCNC(=O)c2cnc3c(C)cccn3c2=O)c1	-20.1%
CCc1ccccc1NC(=O)c1cc2sc(Cl)cc2n1CC	4.3%
Cc1ccc(CN2CCCN(CC(=O)Nc3ccc(C)cc3C)S2(=O)=O)cc1	-0.2%
CCc1cc2c(cc3c(=O)n(CC(=O)NCCOC)nc(CC)n32)s1	-1.7%
Cc1cccc(N(Cc2cc3ccccc3[nH]c2=O)C(=O)c2cccc(Cl)c2)c1	22.0%
COc1ccc(Cc2c(C)nn(-c3nc(C)c(C(=O)Nc4ccc(C)cc4C)s3)c2C)cc1	-2.3%
Cc1ccc(Cn2c(=O)n(Cc3ccccc3Cl)c(=O)c3ccccc32)cc1	-12.1%
Cc1ccc(Cl)cc1NC(=O)c1sc2nc(C)c(C)c(C)c2c1N	-20.8%
Cc1ccc(OCC(=O)Nc2ccc3nc(SCc4ccccc4)sc3c2)cc1	-14.2%
CCCCN(CCCC)C(=O)C1CCN(S(=O)(=O)c2cccc3nsnc23)CC1	-6.7%
Cc1ccc(-n2c(=O)c3ccc(C(=O)NCc4ccccc4Cl)cc3n(CC(=O)Nc3cccc(Cl)c3)c2=O)cc1	-7.0%
CCOc1ccccc1CNC(=O)c1sc2ncccc2c1-n1cccc1	2.6%
Cc1cc(C)n2c(Nc3ccccc3)c(-c3ccccc3)nc2n1	0.2%
CN(Cc1ccccc1)S(=O)(=O)c1ccc(NC(=O)c2cc(=O)c3ccccc3o2)cc1	?
N#C/C(=C\c1ccc(Cl)cc1)c1nc(-c2cc3ccccc3oc2=O)cs1	-1.0%
Cc1nc2nc(C)c(NS(=O)(=O)c3ccc(F)cc3)c(=O)n2[nH]1	0.1%
Cc1ccc(C)c(NC(=O)Cn2c(-c3nonc3N)nc3ccccc32)c1	-13.4%
O=C(CN1CCN(Cc2cccc(Cl)c2)C1=O)NCc1ccc(F)cc1	2.8%
Cn1c(=O)c2c(SCC(=O)NCc3ccc(F)cc3)nc(-c3ccccc3Cl)nc2n(C)c1=O	3.6%
O=C(O)CC(NS(=O)(=O)c1ccc(Br)s1)c1ccccc1 (stereo not drawn)	-1.0%
CCOc1ccc(CNC(=O)c2ccc(Sc3ccc(C)cc3)c(N)c2)cc1OC	24.9%
CCOC(=O)Cn1c(=O)oc2cc(S(=O)(=O)Nc3ccccc3F)ccc21	3.5%
CCSc1ncc(Cl)c(C(=O)Nc2sc3c(c2C(=O)NCCCOC)CCCC3)n1	-0.7%
CCOc1ccc(OCC)c(NC(=O)CN(c2ccc(C)cc2)S(=O)(=O)c2c(C)n[nH]c2C)c1	1.8%
O=C(Cn1ncc2c3ccccc3n(Cc3ccc(F)cc3)c2c1=O)NCc1ccccn1	3.4%
CCNC(=O)c1ccc(CSc2nc3cccnc3n2Cc2ccc(OC)cc2)cc1	0.4%
Cc1c(C(=O)Nc2ccccc2)sc2nc(-c3cc4ccccc4oc3=O)[nH]c(=O)c12	-0.6%
O=C(NCc1ccc(Cl)cc1)C(=O)Nc1ccc(Br)cc1	-1.6%
Cc1c(NC(=O)c2ccc(Cl)cc2)cc(C(C)C)c(O)c1S(=O)(=O)c1ccccc1	-19.4%
Cc1ccc2c(c1)N(C(=O)CCC(=O)Nc1ccc(F)cc1F)CC(C)O2 (stereo not drawn)	-15.8%
COc1ccc(NC(=O)Nc2cc(C(=O)NCc3ccc(C)cc3)ccc2N2CCCC2)cc1	-0.4%
Cc1cccc(N2CCN(C(=O)CCn3c(=O)c4cccn4c4cccnc43)CC2C)c1 (stereo not drawn)	20.4%
COc1ccc(Cl)cc1NC(=O)CN1C(=O)C(C)(C)c2cc(S(=O)(=O)N3CCCCC3)ccc21	7.8%
CCc1ccccc1NC(=O)CCc1c(C)nc2cc(-c3ccccc3)nn2c1C	-4.5%
CCN1CCN(CCCNC(=O)Cn2nc(C)n3c(cc4c(OC)cccc43)c2=O)CC1	4.0%
COc1ccc2oc(=O)c(-c3csc(/C(C#N)=C/c4ccc(F)cc4)n3)cc2c1	-4.9%

More results
SMILES	miR-21 reporter
O=C(CSc1nccn1C1CCCC1)Nc1cc(C(F)(F)F)ccc1Cl	2.6%
Cc1c(Cl)cccc1-n1ncc(C(=O)NCc2cccs2)c1C1CCN(C(=O)OC(C)(C)C)CC1	20.6%
Cc1cccc(N(C)S(=O)(=O)c2nnc(NC(=O)C(C)(C)C)s2)c1	-12.6%
Cc1cc(=O)n(Cc2ccc(Br)cc2F)c2c1c(C)nn2-c1ccccc1	-2.0%
